Mtb bLac sens: beta-lactam sensitization of Mtb H37Rv | M. tuberculosis H37Rv growth with meropenem, percent inhibition; hits of this screen are not shown here | inhibition, % at 25 µM | hit rate 0.27% among 330,000;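 active = about 74% or more and at least 40 points above the plate without the antibiotic, then above 30% in a dose series; inconclusive = first-round hits that could not be retested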;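 note: growth measured after seven days incubation then overnight dye step; 0% = bacteria only wells and 100% = bacteria with antibiotic; twin plates without the antibiotic show which effects depend on it; some results filed as inactive read as strong as hits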
* = called active by the depositor; ? = inconclusive.

SMILES	Mtb bLac sens
CN(CC(=O)N1CCOCC1)S(=O)(=O)c1cc(Cl)ccc1Cl	-1
COc1cc(SC)ccc1C(=O)OCC(=O)N1CC(=O)Nc2ccccc21	-7
CC(C)(C)OC(=O)NCc1ccc(NC(=O)c2nc[nH]c2C(=O)NCCNC(=O)c2[nH]cnc2C(=O)Nc2ccc(CNC(=O)OC(C)(C)C)cc2)cc1	5
O=C(CNC(=O)C1CCCC1)Nc1ccccc1Br	-7
O=C(C[C@H]1C/C=C\CC[C@@H](Cc2ccc(F)cc2)C(=O)OC[C@H]2CCCN2C1=O)N[C@H](CO)Cc1ccccc1	-4
CCOc1ccc(NC(=O)CN(C)C(=O)c2cc3c(s2)CCC(C)C3)cc1OCC (stereo not given)	-3
O=C(Nc1ccc(NC(=O)c2ccccc2F)cc1)c1cccs1	-15
CCCCN1C(=N)N([C@@H](CCC)CN2CCC[C@H]2CN2C(N)=NC[C@H]2C(C)C)C[C@H]1[C@H](C)CC	-4
COc1ccccc1C1=CC(=O)C[C@H](c2ccc(F)cc2)C1	5
O=C(Nc1cccc(S(=O)(=O)N2CCCC2)c1)c1cccc(S(=O)(=O)N2CCOCC2)c1	2
Cc1ccnc(NC(=O)c2ccc(Cl)c(S(=O)(=O)N3CCCCC3)c2)c1	3
CCCN1CCC[C@@H](c2cccc(O)c2)C1	-1
O=C(COC(=O)c1c(F)cccc1Cl)NC(=O)Nc1ccc2c(c1)OCCO2	6
COc1ccc2sc(-c3ccc(N(C)C)cc3)c(C#Cc3cncn3C)c2c1	100
CC1CCCCC12NC(=O)N(CC(=O)N1CCN(c3ccccc3)CC1)C2=O (stereo not given)	-1
CCN(CC(=O)Nc1c(F)cccc1F)C(=O)c1nc2nccc(C)n2n1	-1
COc1cc(NC(=O)C2CC(c3ccc(Cl)cc3)=NO2)cc(OC)c1OC (stereo not given)	-6
Cc1ccc(S(=O)(=O)N2[C@@H](c3cccc(Cl)c3)C(C(=O)O)=CC[C@H]2c2cccc(C)c2)cc1	-4
c1cncc(-c2ccc3ncnc(NCc4ccc5c(c4)OCO5)c3c2)c1	8
COc1ccc(CNC(=O)C2CCC(CNS(=O)(=O)c3cccs3)CC2)cc1 (stereo not given)	0
C[C@]12CCC3[C@@H](CC[C@@H]4C[C@H](O)CC[C@]34C)[C@@H]1CCC2=O (stereo not given in full)	0
COc1ccc(S(=O)(=O)N2CCN(C(=O)C3CC3)CC2)cc1Br	3
COCCN(CC(=O)Nc1cccc(C)c1C)C(=O)c1cc(S(=O)(=O)N2CCCC2)ccc1C	10
COc1ccccc1-c1nnc(SCC(=O)NNC(=O)c2ccccc2F)n1C	-13
O=C(Cc1ccc2c(c1)OCCO2)N/N=C/c1ccco1	7
C[C@@H]1NCCc2cc(O)c(O)cc21	-3
O=S(=O)(c1cccc(Cn2nnc(-c3ccccc3)n2)c1)N1CCOCC1	0
CN(C(=O)Cn1c(=O)oc2ccccc21)C1CCCCC1	-4
NC(=O)c1ccc(-c2nnn(CC(=O)Nc3cccc(S(=O)(=O)N4CCCC4)c3)n2)cc1	-9
CC1CC(C)(C)CC2(C1)NC(=O)N(CC(=O)N1CCN(S(=O)(=O)c3cccs3)CC1)C2=O (stereo not given)	-4
COc1ccc(C(=O)NC(C(=O)NCC2(N3CCCCC3)CCCCC2)C(C)C)cc1 (stereo not given)	3
CC(C)(C)[C@@H]1COC(=O)[C@@H](Cc2ccc(F)cc2)C/C=C\C[C@H](CC(=O)N(CCO)Cc2ccccc2)C(=O)N1	3
Cn1nnnc1Sc1ncnc2scc(-c3ccc(C#N)cc3)c12	91
Cc1ccc(C2Nc3ccccc3NC3=C2C(=O)CC(C)(C)C3)c(O)c1 (stereo not given)	-13
C[C@H](CO)N1C[C@H](C)[C@@H](CN(C)C(=O)Nc2ccc(C(F)(F)F)cc2)Oc2ccc(NC(=O)Nc3ccccc3)cc2C1=O	9
CC(=O)c1c(C)[nH]c(C(=O)Nc2cccc(S(=O)(=O)N3CCCC3)c2)c1C	0
CCSc1nc(O)c(C(c2cccc(OC)c2)c2c(O)nc(SCC)[nH]c2=O)c(=O)[nH]1	4
O=C(O)c1sccc1S(=O)(=O)N1CCOCC1	-2
O=C(CSc1nc2ccccc2c(=O)n1CCCN1CCOCC1)NCCc1ccccc1	7
O=C(NC1CCCCC1)c1cccc2c1C(=O)c1ccc(N3CCCC3)cc1S2(=O)=O	-6
c1ccc2c(-c3ccc(OCCN4CCCCC4)cc3)c(-c3ccsc3)sc2c1	99
CC1(C)Oc2ccc3ccc(=O)oc3c2[C@@H](O)[C@H]1O	-5
COc1ccc(C(=O)N2CCN(CCNC(=O)C(=O)Nc3ccc(F)cc3)CC2)cc1OC	-5
CN(CC(=O)Nc1cc(S(=O)(=O)N2CCCC2)ccc1Cl)Cc1ccc2c(c1)OCO2	-2
CCN(C(=O)CN1C(=O)NC(c2ccccc2)(c2ccccc2)C1=O)c1ccccc1	-6
CCCCC[C@@H]1C=C(C(=O)O)[C@H](c2ccc(Br)cc2)N1S(=O)(=O)c1ccc(C)cc1	5
Cc1cc(C)n(CC(=O)NNC(=O)COc2ccc(Cl)cc2Cl)n1	-1
Cc1c(C(=O)N2CCN(c3ccc([N+](=O)[O-])cc3)CC2)oc2ccccc12	0
COC(=O)[C@]1(C)N[C@H](c2ccc(-c3ccc(OC)cc3)cc2)[C@@H]2C(=O)N(C)C(=O)[C@@H]21	-3
COc1ccc(CCNC(=O)COC(=O)c2sc(C)nc2C)cc1	-3
Cc1ccc(C(=O)N2CCN(S(=O)(=O)c3ccccc3C#N)CC2)cc1S(=O)(=O)N1CCOCC1	-2
CCOc1ccc(S(=O)(=O)NCCC(=O)NCC2CCCO2)cc1 (stereo not given)	8
O=C(COc1ccccc1F)NNC(=O)Cn1c(=O)cnc2ccccc21	-1
OCC[C@H]1C[C@H](O)[C@@H](O)[C@]2(CCc3ccccc3CO2)O1	-12
CCCCN(C(=O)c1c(CC)noc1C)c1c(N)n(CCCC)c(=O)[nH]c1=O	-5
O=C(NC(Cc1ccccc1)C(=O)O)/C(=C/c1ccc(Br)cc1)NC(=O)c1ccc(Br)o1 (stereo not given)	-13
CC(C)CCNC(=O)c1ccccc1SCC(=O)NC1CCCCCCC1	-12
CCc1cccc(NS(=O)(=O)c2c(C)nc3sc(CC)nn3c2=O)c1	2
COc1ccc(S(=O)(=O)N2CCOCC2)cc1NC(=O)c1cccs1	1
Cc1ccc(C2(C)NC(=O)N(CC(=O)N(C)CC(=O)Nc3cccc(F)c3)C2=O)cc1 (stereo not given)	-5

More results
SMILES	Mtb bLac sens
O=C(COC(=O)Cn1cnc2ccccc21)Nc1ccccc1C(F)(F)F	-10
O=C(OCc1nnc(-c2ccccc2)o1)c1cccc(-n2cnnn2)c1	4
Cc1ccccc1CN(C)c1ccc(S(=O)(=O)N2CCN(C)CC2)cn1	2
COc1ccc(C(=O)COC(=O)c2cccs2)cc1	79
CCCCCCSc1cc(-c2nc3cnccn3c2NCCCC)ccc1OC	93
O=C(Nc1ccc2c(c1)OCO2)c1ccc(CO)cc1	4
Cc1ccnc(NC(=O)c2ccc(S(=O)(=O)N3CCCCC3)cc2)c1	-7
Cc1cc(NC(=O)c2ccoc2C)ccc1Br	12
CCOC(=O)c1cc(C(=O)Nc2ccc(S(=O)(=O)Nc3ccc(OC)cc3)cc2)nn1C	?
O=C(CCC(=O)NNC(=O)c1ccc(Cl)cc1Cl)NCc1ccccc1	-6
Cc1ccc(C)c(S(=O)(=O)N2CCN(C(=O)CCc3c[nH]c4ccccc34)CC2)c1	-4
CC(C)C[C@H](NC(=O)N1CC(=O)Nc2ccccc21)C(=O)N[C@@H](Cc1ccccc1)C(=O)O	-10
CCOc1ccc(/C=N/NC(=O)Cc2ccccc2)cc1CN1CC2CC(C1)c1cccc(=O)n1C2 (stereo not given)	18
COc1ccccc1CNC(=O)COC(=O)c1sc(C)nc1C	-5
Cc1ccc(S(=O)(=O)N2CCOCC2)cc1NC(=O)Nc1ccc([N+](=O)[O-])cc1	-11
Cc1cc(NC(=O)CSc2nc(Cc3ccccc3)c(C)[nH]2)no1	4
Cc1ccc(OCCCC(=O)Nc2ccc(Cl)c(S(=O)(=O)N3CCOCC3)c2)cc1	-7
O=C(Nc1ccccc1Br)c1ccc(N2CCCC2=O)cc1	-8
COc1ccc(NC(=O)N2CCCC2C(=O)NCC2CCCCC2)cc1 (stereo not given)	-5
COc1cccc(C(=O)NC23CC4CC(CC(C4)C2)C3)c1	-1
O=C(Nc1nccs1)[C@@H]1CCCN1S(=O)(=O)c1ccc(Cl)cc1	-2
Cc1c(Cl)c(=O)oc2cc(OCC(=O)N3CCCC(C)C3)ccc12 (stereo not given)	-8
NC(=O)C1CCCN(C(=O)CCC(=O)c2cccs2)C1 (stereo not given)	1
Cc1ccc(CN(C)c2ccc(S(=O)(=O)N3CCCC3)cn2)cc1	7
O=C(CN1C(=O)C(=O)N(CCC2=CCCCC2)C1=O)c1c[nH]c2ccccc12	-2
Cc1ccn(CC(=O)N2CCCC(Nc3ccc(F)c(F)c3)C2)n1 (stereo not given)	2
COc1ccc(CC(NC(C)=O)C(=O)NC2CCN(S(=O)(=O)c3ccc(NC(C)=O)cc3)CC2)cc1 (stereo not given)	-15
CC(OC(=O)c1n[nH]c2ccccc12)C(=O)NC1CCCCC1C (stereo not given)	5
O=C(CCOc1ccccc1)Nc1ccc(S(=O)(=O)Nc2ncccn2)cc1	2
O=C(NNC(=O)c1csc(N2CCOCC2)n1)c1ccc(Cl)nc1	1
O=C(CN1CCCCCC1)NC(c1ccccc1)c1ccccc1	1
O=C(COC(=O)c1cccc(Cl)c1)NC(=O)NCc1ccccc1	2
CC1(C)CC(=O)C=C(c2cccc(CO)c2)C1	-3
CCCCOc1ccc(C(=O)NCC(=O)OCC(=O)c2c(N)n(C)c(=O)n(C)c2=O)cc1	-7
COc1cc(C(=O)N2C[C@H]3C[C@@H](C2)c2cccc(=O)n2C3)cc(OC)c1OC	-5
Cn1c(=O)c(C(=O)CN2CCN(Cc3ccc4c(c3)OCO4)CC2)c(N)n(Cc2ccccc2)c1=O	0
Cc1ccsc1C(=O)OCC(=O)N(C)c1c(N)n(Cc2ccccc2)c(=O)[nH]c1=O	-1
CCOC(=O)[C@H]1[C@H]2COc3cc(OC)ccc3[C@@H]2N2C(=O)c3c(C)cc(C)cc3NC(=O)[C@@]12C	14
COc1ccc(C(=O)NCC(=O)OCC(=O)NC23CC4CC(CC(C4)C2)C3)cc1	4
O=C(O)Cc1cccc2ccccc12	-9
Cc1c(O[C@@H]2O[C@H](CO)[C@@H](O)[C@H](O)[C@H]2O)c(CO)c(O[C@@H]2O[C@H](CO)[C@@H](O)[C@H](O)[C@H]2O)c2c1O[C@@H](c1ccccc1)C[C@@H]2O	1
CCCCC[C@@H]1C=C(C(=O)O)[C@H](c2ccc(C)cc2)N1S(=O)(=O)c1ccc(C)cc1	2
CC(=O)N1CCN(CC(=O)Nc2ccccc2C(=O)Nc2ccccc2)CC1	-5
Cn1c(CC(=O)NNC(=O)c2cncc(Br)c2)nc2ccccc21	5
COc1ccc(-c2nc(S(=O)(=O)c3ccccc3)c(NCCCN3CCOCC3)o2)cc1	5
C[C@H](CO)N1C[C@H](C)[C@@H](CN(C)S(=O)(=O)c2cn(C)cn2)Oc2c(NS(=O)(=O)c3cn(C)cn3)cccc2C1=O	-2
O=C(CN1C(=O)NC2(CCCC2)C1=O)Nc1cc(S(=O)(=O)N2CCCCC2)ccc1Cl	0
CC(C)(C)C(=O)Nc1ccc(C(=O)CN2C(=O)NC3(CCOc4ccccc43)C2=O)cc1 (stereo not given)	-5
COc1ccccc1-c1oc2ccccc2c1-c1ccc2cc[nH]c2c1	14
C[C@H]1CN([C@@H](C)CO)C(=O)Cc2cc(NC(=O)Cc3ccccc3)ccc2O[C@H]1CN(C)S(=O)(=O)c1cccs1	5
Cc1ccc(NC(=O)C2CCCO2)c(Br)c1 (stereo not given)	4
CC(=O)NCc1ccc(-c2csc(NC(=O)CCc3nc4ccccc4c(=O)[nH]3)n2)s1	-4
CC(OC(=O)CSc1ccc([N+](=O)[O-])cc1)C(=O)NC1CC1 (stereo not given)	0
O=C(Nc1ccccn1)C1CCN(S(=O)(=O)c2ccc3c(c2)OCCO3)CC1	-1
O=C(OCC(=O)N1CCN(C(=O)c2ccco2)CC1)c1cccc(F)c1	3
C[C@H](CO)N1C[C@H](C)[C@@H](CN(C)Cc2ccncc2)Oc2c(NS(=O)(=O)c3ccc(F)cc3)cccc2C1=O	-2

Source: PubChem

An excerpt, so the mix of outcomes need not match the whole.
